Bioassay records (PubChem BioAssay)
Rango dissoc inh – inhibitors of RanGTP-induced Rango-importin beta complex dissociation; Biochemical FRET Rango-importin beta, RanGTP-induced dissociation; Potency, µM (titrated, usually from 46.1 µM), for the others: at the top dose activity change, negative = inhibition; 340,000 compounds, 0.071% hits; active means falling FRET ratio curve, often poorly fitted, with flat reads before Ran was added; inconclusive means other falling curves, or compound fluorescence or quenching; inactive means flat or rising ratio curve;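 further: potency means the concentration at half of the fitted maximal effect; % of control where 0% means no effect; nearly all actives have a fitted effect of over 45% in size; -100% = wells without RanGTP and RCC1; the record marks most hits as doubtful in a second field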
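Rango (0.1 uM)–importin beta (0.25 uM) complex; RanGTP-RCC1 trigger; 45 min RT; CFP/YFP FRET read.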
Rango complex inh – inhibitors of Rango-importin beta complex formation; Q14974; Rango CFP/YFP FRET sensor + importin beta, 45 min; Potency, µM (series often up to 92.2 µM), for inactives: top-dose inhibition of complex formation; 340,000 compounds, 0.031% hits; active = rising FRET ratio curve, often small or poorly fitted; inconclusive = mostly compound fluorescence or quenching in the first reads; inactive = flat curves in all reads;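 further: potency means the concentration at half of the fitted maximal effect; 0% = DMSO wells and 100% = buffer wells lacking importin beta; nearly all actives have a fitted effect of over 15% in size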
Target sequence (Q14974 whole entry, looked up): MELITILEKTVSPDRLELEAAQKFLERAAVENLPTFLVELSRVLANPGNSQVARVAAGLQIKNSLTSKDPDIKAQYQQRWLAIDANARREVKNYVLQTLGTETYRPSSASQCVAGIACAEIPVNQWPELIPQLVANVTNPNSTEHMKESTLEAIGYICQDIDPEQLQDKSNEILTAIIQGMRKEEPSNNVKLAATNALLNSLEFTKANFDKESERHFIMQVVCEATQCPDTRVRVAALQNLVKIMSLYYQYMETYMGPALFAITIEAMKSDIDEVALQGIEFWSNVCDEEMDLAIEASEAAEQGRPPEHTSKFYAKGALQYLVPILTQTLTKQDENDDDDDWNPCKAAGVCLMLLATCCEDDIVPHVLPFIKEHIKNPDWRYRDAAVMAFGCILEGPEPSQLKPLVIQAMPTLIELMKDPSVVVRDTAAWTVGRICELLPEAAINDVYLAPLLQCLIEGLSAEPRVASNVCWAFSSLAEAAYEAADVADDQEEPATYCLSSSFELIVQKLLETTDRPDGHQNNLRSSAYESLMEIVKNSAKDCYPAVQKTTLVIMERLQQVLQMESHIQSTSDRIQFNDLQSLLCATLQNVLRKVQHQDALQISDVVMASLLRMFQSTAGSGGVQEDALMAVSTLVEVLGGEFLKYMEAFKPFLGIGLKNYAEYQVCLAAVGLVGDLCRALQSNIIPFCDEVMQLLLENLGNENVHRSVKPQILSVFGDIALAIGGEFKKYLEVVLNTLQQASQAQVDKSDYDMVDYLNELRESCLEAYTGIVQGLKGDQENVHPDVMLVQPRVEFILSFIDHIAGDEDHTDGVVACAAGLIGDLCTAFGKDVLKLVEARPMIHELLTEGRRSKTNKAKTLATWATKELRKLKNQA
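FRET biosensor Rango (snurportin 1 IBB between N-terminal EYFP and C-terminal Cerulean), 50 nM in PBS/1 mM DTT/0.02% Tween-20/0.1% BSA, preincubated 5 min RT with compound; 0.125 microM importin beta added, 45 min RT, CFP/YFP FRET ratio read.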
GLA inh pH 4.5 – alpha-galactosidase A (human) inhibition, pH 4.5; P06280; purified enzyme, 4-MU-alpha-Gal fluorescence, pH 4.5; activity change, negative = inhibition, % at 105 µM; 230,000 tested, under 10 active; AID 1467; inconclusive = small, poorly fitted or top-dose-only inhibition, or a rising curve; inactive = flat fitted curve, though single readings scatter; no compound was filed as active;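 further: 0% = full activity with enzyme and -100% = basal without enzyme; dose as in the result columns while the protocol names 77 µM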
miR-21 reporter – miR-21 reporter, rising signal. HeLa miR-21 FLuc reporter, luciferase, 48 h. Potency, µM (series often up to 38.3 µM), for inactives: top-dose reporter change, positive = more light. 340,000 tested, under 10 active; active = well fitted rising curve with a large enough effect; inconclusive = small, poorly fitted or top-dose-only effect; inactive = no such curve, though single readings can be large or run the other way;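 further: % of control where 0% means no effect; miR-21 action dims this reporter so a rising signal means less miR-21 action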
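HeLa cells stably expressing CMV-driven firefly luciferase with a downstream miR-21 binding sequence, endogenously expressing miR-21, were treated with titrations (up to about 40uM final) for 48 hours at 37 degree Celsius. Luciferase luminescence was read after lysis.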
The depositor's hits bear a star; ? = inconclusive; . = not tested or not shown; [ ] = another dose, or the depositor's remark.

SMILES	Rango dissoc inh	Rango complex inh	GLA inh pH 4.5	miR-21 reporter
CCOc1ccc(Cn2c3ccc(OC)cc3c3nc4ccccc4nc32)cc1	3.7%	2.5%	0.1	-1.1%
COc1cc(NS(=O)(=O)c2ccc(NC(=O)C3CCCO3)cc2)nc(OC)n1 (stereo unspecified)	-8.2%	?	-6.2	-3.9%
Cc1ccccc1-n1nnnc1SCC(C)C	2.7%	-0.9%	-4.2	0.5%
CCCn1c(=O)c(C(=O)Nc2ccccc2C(=O)OCC)c(O)c2ccccc21	19.4%	-0.6%	-18.0	-4.8%
O=C(Nc1nccs1)c1cc(-c2ccccc2)nc2ccccc12	-4.3%	-1.7%	-2.3	13.5%
O=C(Nc1ccccc1N1CCOCC1)c1cc2c(s1)CCCCC2	21.0%	-2.9%	-2.0	-39.1%
O=C(Nc1cccc(-c2ccc3nncn3n2)c1)C(F)(F)F	-27.4%	-1.9%	.	-1.2%
COc1cc(NC(=O)c2cc(C)nc3ccccc23)cc(OC)c1	-2.6%	-3.7%	3.4	-4.5%
Cc1ccc(S(=O)(=O)N2CCCC2CNC(=O)C(=O)NC2CC2)cc1 (stereo unspecified)	16.8%	?	.	.
C/C(=N\NC(=O)c1ccccc1)c1ccc2c(c1)OCO2	-5.7%	0.2%	4.0	-56.2%
Cc1ccc(N(C(=O)CNC(=O)c2cccs2)C(C(=O)NC2CCCC2)c2ccncc2)cc1 (stereo unspecified)	-13.5%	-0.9%	.	0.0%
COc1cc(N)c(Cl)cc1C(=O)OCC(=O)c1cccs1	16.7%	-3.1%	.	-6.4%
CC(C)(/C=N/NC(=O)CSCc1ccccc1Cl)CCC#N	-8.3%	1.4%	12.1	-9.9%
Cn1nnnc1SCCOc1ccc(C#N)cc1	8.7%	0.1%	10.8	-11.8%
COc1cc(OC)cc(-c2c(-c3cccs3)c3cc(-c4ccc(CN5CCOCC5)cc4)ccc3n2C)c1	5.8%	-2.2%	.	.
CCc1c(C2(O)CCCCC2)[nH]c2ncccc12	13.2%	-1.8%	.	.
O=C(NCCC1=CCCCC1)c1ccc(F)cc1	-17.7%	-0.2%	-1.4	-5.5%
COc1ccc(C(=O)CSC#N)cc1OC	30.9%	7.6%	-19.7	-1.5%
COC(=O)C1CCN(C(=O)c2oc3c(Cl)cc(C)cc3c2C)CC1	1.1%	0.2%	.	-53.3%
Cc1nnc(SCC(=O)N2CCOCC2)c2ccccc12	1.4%	3.2%	1.2	-20.3%
O=C(CC(C(=O)O)c1ccccc1)Nc1cccc2ccccc12 (stereo unspecified)	-1.1%	-0.8%	-10.6	-4.4%
CCCCOc1ccc(/C=C/C(=O)N(CC)CC(=O)Nc2ccc3c(c2)OCCO3)cc1OC	-1.3%	-0.1%	.	.
CC(/C=N/n1c(-c2ccco2)n[nH]c1=S)=C\c1ccco1	0.6%	-2.3%	3.2	-5.9%
Cc1cccc(C(c2c(C)nn(-c3ccccc3)c2N)c2c(C)nn(-c3ccccc3)c2N)c1	-0.6%	-3.1%	5.9	-0.7%
Cc1cc(C)nc(NC(C)(C)C(=O)O)n1	1.3%	?	9.1	1.0%
CN(C)c1cccc(C(=O)NNC(=O)CSc2ccccc2)c1	-1.9%	2.9%	.	-23.9%
CC(C)Cn1c(CCCNC(=O)c2ccco2)nc2ccccc21	?	-0.8%	.	-6.2%
COc1cc(C2CC(=O)Nc3ccccc3S2)cc(OC)c1OC (stereo unspecified)	4.0%	5.4%	-9.4	12.9%
Fc1ccc(COc2ccccc2-c2ccnc3ncnn23)cc1	-2.2%	-2.2%	5.6	-28.3%
O=C(CC(c1ccccc1)c1ccccc1)NCCO	-4.4%	2.4%	-6.3	-4.4%

Molecules shown so far that have an NH in an aromatic ring (two):
SMILES	Rango dissoc inh	Rango complex inh	GLA inh pH 4.5	miR-21 reporter
CCc1c(C2(O)CCCCC2)[nH]c2ncccc12	13.2%	-1.8%	.	.
CC(/C=N/n1c(-c2ccco2)n[nH]c1=S)=C\c1ccco1	0.6%	-2.3%	3.2	-5.9%

Further records follow:
SMILES	Rango dissoc inh	Rango complex inh	GLA inh pH 4.5	miR-21 reporter
C=CCOc1ccccc1/C=N/n1nnnc1N	10.6%	2.3%	.	-3.6%
C/C(CC(=O)Nc1cc(Cl)ccc1Cl)=N\NC(=O)c1ccccc1Br	1.9%	1.3%	-3.9	-0.9%
O=C(Nc1ccc(-c2noc(COc3ccccc3Cl)n2)cc1)c1ccco1	-6.3%	8.0%	3.0	-40.0%
O=C(CSc1ccc2c(c1)OCCO2)Nc1cccc(S(=O)(=O)N2CCCCC2)c1	-3.8%	-1.2%	-11.4	-9.8%
COc1ccc(C(=O)Nc2c3c(nn2-c2ccc([N+](=O)[O-])cc2)CS(=O)(=O)C3)cc1	20.8%	-0.2%	.	-4.1%
O=C1CCCC2=C1C(c1cccs1)n1nc(SCc3ccccc3)nc1N2 (stereo unspecified)	22.6%	-0.3%	23.6	2.4%
O=C(Nc1ccccc1C(=O)NCC1CCCO1)c1ccccc1F (stereo unspecified)	-4.5%	-7.8%	.	0.0%
Cc1cc(OCCCN2CCN(Cc3ccccc3)CC2)ccc1[N+](=O)[O-]	12.0%	4.0%	6.5	-0.5%
Cc1nnc2sc(SCC(=O)Nc3nccs3)nn2c1=O	11.2%	-1.6%	1.6	-4.8%
CC(=O)c1ccc(S(=O)(=O)NCCc2cn3ccc(C)cc3n2)cc1	-1.5%	-0.3%	.	.
CC(=O)CSc1ccc(-c2nc3cc(C)c(C)cc3[nH]2)cn1	-9.2%	3.0%	1.7	2.7%
COc1ccc(N2C(=O)CC(N3CCN(c4ccccc4)CC3)C2=O)cc1 (stereo unspecified)	1.0%	-2.4%	.	-9.6%
Cc1cc(C)n(C(C)CC(=O)Nc2ccc3c(c2)OCO3)n1 (stereo unspecified)	13.2%	1.1%	.	-10.8%
O=C(COC(=O)c1cncc(Br)c1)NCc1ccccc1	-11.9%	-2.2%	0.5	-0.8%
CC[n+]1c(/C=C/N(C)c2ccccc2)n(-c2ccccc2)c2ccc(-c3nc4ccccc4s3)cc21	?	?	.	?
CC(C)c1ccccc1N=C1SCCN1C1CCS(=O)(=O)C1 (stereo unspecified)	6.4%	-0.2%	4.9	-1.3%
O=C(NC(=S)Nc1ccccc1N1CCOCC1)c1ccccc1F	-4.0%	-1.5%	.	-5.3%
Nc1nc(SCC(=O)Nc2cccc(S(=O)(=O)N3CCCCCC3)c2)n[nH]1	16.5%	-1.4%	-3.2	-5.8%
CCOc1ccc2c(c1)C(NC(C)=O)C(=O)N2CCN1CCOCC1 (stereo unspecified)	4.5%	0.6%	.	-1.4%
O=[N+]([O-])c1cc(S(=O)(=O)Nc2ccccc2)ccc1NCc1ccccc1	1.5%	-0.4%	5.0	-7.0%
Cc1c(C(=O)Nc2cnccn2)oc2ccccc12	-4.4%	0.7%	2.6	-5.0%
Cc1cc(NC(=O)c2cc3ccccc3o2)ccc1NC(=O)c1ccccc1	6.9%	-2.6%	.	-4.7%
Cc1ccsc1C(=O)N1CCCC(C(=O)c2cc(F)ccc2F)C1 (stereo unspecified)	4.8%	?	-5.0	-1.9%
CCN(C1CCS(=O)(=O)C1)S(=O)(=O)c1ccc2ccccc2c1 (stereo unspecified)	?	-3.5%	.	.
COc1ccccc1C(=O)NCCc1nc2ccccc2[nH]1	-5.9%	-0.1%	-5.9	-12.1%
Cc1cc(C)cc(SCc2noc(C(=O)NCC3CCCO3)c2C(=O)O)c1 (stereo unspecified)	3.6%	1.1%	14.6	-2.4%
CCOC(=O)C1=CC[C@H]2c3c(c4ccc(OC)cc4n3C)C(=O)C1N2S(=O)(=O)c1ccc(C)cc1	0.2%	-2.2%	.	.
COc1ccc(CCNCC(O)COc2c(C)cccc2C)cc1OC (stereo unspecified)	3.1%	0.4%	.	-5.3%
O=C(NCCc1ccccc1Cl)C1CC(=O)N(C2CCCCC2)C1 (stereo unspecified)	4.3%	5.6%	.	0.1%
COc1ccc(C2C(C(=O)c3cccs3)=C(O)C(=O)N2c2nnc(C)s2)cc1OC (stereo unspecified)	?	?	-6.4	-10.3%
COc1cc(NC(=O)Nc2ccc3c(c2)OCO3)cc(OC)c1OC	0.3%	3.9%	3.4	-12.5%
COc1ccc(Cl)cc1NC(=O)COC(=O)CNC(=O)C1CCCCC1	-14.6%	4.3%	.	.
Cc1ccc(C(=O)c2c(NC(=O)c3ccccc3)sc(C)c2C)cc1	3.9%	-1.5%	-6.4	-5.3%
COc1ccccc1OCCNC(=O)c1ccc(C(C)(C)C)cc1	16.4%	-1.8%	.	.
CCC(C)NC(=O)CSc1ccc(NC(C)=O)cc1 (stereo unspecified)	-1.2%	0.7%	-2.6	-3.6%
CCC1(c2ccccc2)NC(=O)N(CC(=O)c2ccc3c(c2)OCO3)C1=O (stereo unspecified)	-21.6%	-9.3%	.	.
Cc1cc(CN2CCOCC2)c(O)c(C2(C)CCCCC2)c1	10.4%	0.3%	-3.0	-6.5%
COC(=O)C1=C(C)N(c2ccc(OC)c(OC)c2)C(=O)/C1=C\c1ccco1	3.3%	2.1%	4.8	-0.7%
O=c1c2c([nH]c3ccccc13)CCCCCC2	-3.2%	-3.6%	-4.3	-6.0%
CCc1sc(NC(=O)C(C)C)nc1-c1ccccc1	-3.9%	-3.2%	-3.3	6.5%
COc1ccc(NC(=O)N2CCN(c3cccc(C(F)(F)F)c3)CC2)cc1OC	2.9%	-0.4%	-5.7	5.4%
Cc1ccc(NC(=O)NNC(=O)C2CC(c3cccnc3)=NO2)cc1 (stereo unspecified)	-5.9%	-1.3%	8.7	-12.4%
Cc1ccc(-c2nn(-c3ccccc3)cc2CO)o1	5.5%	-2.6%	-6.5	-71.0%
O=C(NN1C(=O)C2C(C1=O)C1C=CC2C12CC2)c1ccccc1 (stereo unspecified)	-3.4%	5.4%	-4.0	-2.0%
COc1cc(OC)c(C2C(C#N)=C(N)OC3=C2C(=O)CC(C)(C)C3)cc1OC (stereo unspecified)	-4.6%	-0.1%	4.0	8.0%
CC(C)(C)SC(=O)CC1NS(=O)(=O)OCC1NC(=O)OCC(Cl)(Cl)Cl (stereo unspecified)	4.8%	1.6%	.	9.0%
CCCn1c(SCC(=O)Nc2ccccc2Cl)nc(O)cc1=O	20.3%	1.6%	.	.
Cn1c(-[n+]2c(-c3ccccc3)cc(-c3ccccc3)cc2-c2ccccc2)nc2cc([N+](=O)[O-])ccc21	36.9%	3.3%	-22.3	27.7%
COc1ccc(S(=O)(=O)Nc2ccc(-c3ccc4nnc(C)n4n3)cc2)c(OC)c1	?	3.1%	.	.
C=C(C)CNC(=S)N=Nc1c(O)[nH]c2ccc([N+](=O)[O-])cc12	0.9%	5.8%	-25.0	-4.6%
CNc1ncc(C(=O)c2ccc(Cl)c(Cl)c2)s1	-9.2%	-1.0%	-13.6	-47.0%
NS(=O)(=O)c1ccc(CCNC(=O)C(=O)c2c[nH]c3ccccc23)cc1	8.0%	-0.7%	-7.9	-0.8%
O=C(CCNS(=O)(=O)c1cccc2nonc12)NC1CCCCCC1	-20.9%	0.1%	1.3[21.1 µM]	-0.6%
COCCn1c(SCC(=O)Nc2cc(OC)ccc2OC)nc2c(c1=O)SC(C)C2 (stereo unspecified)	-19.2%	-0.9%	-4.9	-11.6%
CC1CCN(CCCNC(=O)C2CCC(CNS(=O)(=O)c3cccc4nsnc34)CC2)CC1 (stereo unspecified)	?	-3.1%	.	-4.9%
Cc1cc(NC(=O)CSc2nnc(C(C)N(C)C)n2-c2ccc(F)cc2)no1 (stereo unspecified)	0.6%	-0.7%	0.1	-2.9%
O=C(COC(=O)Cc1ccc(Br)cc1)NCC1CCCO1 (stereo unspecified)	0.6%	0.4%	.	.
O=C(O)CCCNc1ccc(S(=O)(=O)N2CCCCC2)cc1	2.1%	-0.8%	-0.4	1.0%
Cc1nnc(NCc2ccncc2)c2ccccc12	-15.5%	0.8%	-10.3	-2.4%
C/C(=N/NC(=O)c1ccc(Cl)s1)c1ccc(NC(=O)COc2ccc(Cl)cc2)cc1	1.8%	-1.1%	-3.9	-16.0%
CC(C)NC(=O)COCc1cc(-c2ccc3c(c2)OCO3)on1	0.5%	-4.6%	.	-32.2%

Not all compounds are listed; rates above refer to the full screens.
